High-throughput results deposited in PubChem by National Center for Advancing Translational Sciences (NCATS).
RE007 growth inh: less growth of the S. pombe RE007 Vpr strain; 360,000 tested, 0.21% active; S. pombe RE007 Vpr strain, BacTiter-Glo ATP luminescence, 24 h; control for the full effect not named in the record; Potency, µM (series often up to 92.2 µM), without a hit: top-dose activity change, negative = less growth; active = well fitted falling curve with a large enough effect; inconclusive = small, poorly fitted or top-dose-only effect; inactive = no such curve, though single readings can be large or run the other way;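 also: % is scaled to controls: 0 for no effect and ±100 for the full control effect; nearly all actives have a fitted effect of over 50% in size; the assay follows cell death caused by Vpr and the record does not say whether a fall means rescue or toxicity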
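Fission yeast RE007 carrying one integrated HIV-1 vpr copy, seeded at OD 0.01 in PMG+AL medium with 23 nL pinned compound. Grown 24 h at 30 degrees; viability read by BacTiter-Glo luminescence after 5 min.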
Cruzain Triton: inhibitors of Trypanosoma cruzi cruzain with detergent; AID 1478; purified cruzain, Z-FR-AMC fluorescence, 0.01% Triton; P25779; Potency, µM, inactives show max response, negative = inhibition, actives largely listed as inhibitors; 200,000 tested, 0.43% active;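 also: plate controls were neutral wells for no effect and buffer without enzyme for full effect; nearly all actives have a fitted effect of over 40% in size; top concentration of the series not given in the record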
Target sequence (P25779 123-467 limits assumed): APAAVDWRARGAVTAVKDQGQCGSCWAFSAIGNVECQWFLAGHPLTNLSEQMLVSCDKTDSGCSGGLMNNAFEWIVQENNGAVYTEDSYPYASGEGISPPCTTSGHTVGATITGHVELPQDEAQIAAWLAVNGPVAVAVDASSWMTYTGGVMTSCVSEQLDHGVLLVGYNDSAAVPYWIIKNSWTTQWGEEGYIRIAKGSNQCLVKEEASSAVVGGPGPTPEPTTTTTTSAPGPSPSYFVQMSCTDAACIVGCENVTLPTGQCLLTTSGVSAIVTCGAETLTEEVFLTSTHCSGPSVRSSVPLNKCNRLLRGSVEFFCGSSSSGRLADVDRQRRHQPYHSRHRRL
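Compounds were screened in titration against cruzain (1.5 nM) with 0.01% Triton X-100 to counter colloidal aggregation. Activity was the AMC fluorescence increase over 60 s after adding 2 uM Z-FR-AMC at pH 5.5.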
SARS PLpro yeast: inhibitors of SARS-CoV papain-like protease in yeast; S. cerevisiae expressing SARS-CoV PLpro, growth rescue; control for the full effect not named in the record; Potency, µM (titrated, usually from 32.9 µM), without a hit: top-dose activity, positive = growth rescue; 330,000 tested, 0.19% active; active means well fitted rising curve with a large enough effect; inconclusive means small, poorly fitted or top-dose-only effect; inactive means no such curve, though single readings can be large or run the other way; also: 0% is about no effect; nearly all actives have a fitted effect of over 55% in size; growth read by luminescence after 48 h
StopGo reporter: FMDV 2A StopGo reporter, luciferase signal; human cells with a luciferase reporter of 2A StopGo recoding; control for the full effect not named in the record; 410,000 tested, 1.2% active; AID 1159524; Potency, µM (titrated, usually from 57.9 µM), without a hit: at the highest dose signal change, negative = less light; active = well fitted falling curve with a large enough effect; inconclusive = small, poorly fitted or top-dose-only effect; inactive = no such curve, though single readings can be large or run the other way; tested in HEK293T cells; also: % is scaled to controls: 0 for no effect and ±100 for the full control effect; nearly all actives have a fitted effect of over 45% in size; luciferase light after 4 h
Lassa entry inh: Lassa virus entry inhibition; Lassa virus pseudotype entry inhibition, cell reporter; control for the full effect not named in the record; Potency, µM (series often up to 37.9 µM), for the others: top-dose activity change, negative = inhibition, actives largely listed as inhibitors; 300,000 tested, 1.2% active; active means well fitted inhibition curve with a large enough effect; inconclusive means small, poorly fitted or top-dose-only effect, or effect the other way; inactive means flat fitted curve, though single readings scatter; tested in HEK293 cells; also: % is scaled to controls: 0 for no effect and ±100 for the full control effect; nearly all actives have a fitted effect of over 50% in size; luciferase read-out
Cruzain noTriton: inhibitors of Trypanosoma cruzi cruzain without detergent | P25779 | purified cruzain, Z-FR-AMC fluorescence, no detergent | Potency, µM, for inactives: max response, negative = inhibition, usual class: inhibitors | 200,000 tested, 2.3% active;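 also: plate controls were enzyme without inhibitor for no effect and buffer without enzyme for full effect; nearly all actives have a fitted effect of over 40% in size; top concentration of the series not given in the record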
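Detergent-free condition (0.00005% Triton X-100) in acetate buffer pH 5.5 with DTT. 1.5 nM enzyme and compound were pre-mixed 15 min, then 2 uM Z-FR-AMC substrate added; reaction progress from fluorescence change between first and third reads (60 s).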
MARV entry inh: Marburg virus entry inhibition. AID 540276. 300,000 tested, 1.8% active. Potency, µM (top dose mostly 37.8 µM), for inactives: at the highest dose activity change, negative = inhibition, hits mostly inhibitors. Marburg virus pseudotyped entry inhibition, cell reporter; control for the full effect not named in the record; about a third of the inactives were read at about 46 µM; active = well fitted inhibition curve with a large enough effect; inconclusive = small, poorly fitted or top-dose-only effect, or effect the other way; inactive = flat fitted curve, though single readings scatter; tested in HEK293 cells; about a fifth of its hits are not listed in these tables; also: % is scaled to controls: 0 for no effect and ±100 for the full control effect; luciferase read-out
NS1 function inh: blocks influenza NS1 protein function | S. cerevisiae slowed by influenza A NS1, growth recovery by OD600 | Potency, µM (top dose mostly 46.1 µM), for the others: top-dose activity, positive = more growth | 270,000 tested, 0.4% active; active means well fitted rising curve with a large enough effect; inconclusive means small, poorly fitted or top-dose-only effect; inactive means no such curve, though single readings can be large or run the other way; also: nearly all actives have a fitted effect of over 50% in size
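Growth recovery, yeast-based: influenza A NS1 expressed in S. cerevisiae causes slow growth, and suppressors are detected by OD600. The parent strain without NS1 is used as positive control.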
* hit, by the source's call; [ ] = remark or other dose. Unless noted, calls follow the shape of the dose curve; as a rule, active = well fitted curve in the direction sought with a large enough effect; inconclusive = small, poorly fitted or top-dose-only effect, or another doubt; inactive = no such curve, though single readings can be large; an effect the other way counts as inactive or inconclusive. Potency is read from the fitted curve at half-maximal effect.

Results for Nc1nnc(CC(=O)N/N=C/c2ccc(-c3ccccc3)o2)s1 ?
RE007 growth inh: -3.7%; Cruzain Triton: -12.9%; SARS PLpro yeast: -0.7%; StopGo reporter: -10.2%; Cruzain noTriton: -9.0%; NS1 function inh: 4.7%

What do the screens show for `N#Cc1c(-c2ccccc2)cc(-c2ccccc2)nc1SCC(O)CS(=O)(=O)Cc1ccc(Cl)cc1` (stereo not given)?
Cruzain Triton: -5.5%; StopGo reporter: 11.8%; Lassa entry inh: -28.4%[46.1 µM]; Cruzain noTriton: 7.94µM*

Results for O=C(COC(=O)c1nn(-c2ccccc2C(F)(F)F)cc1O)c1ccc(OC(F)F)cc1 ?
RE007 growth inh: -6.9%; SARS PLpro yeast: 0.0%; StopGo reporter: -29.3%; Lassa entry inh: 5.9%; MARV entry inh: 12.5%[46.1 µM]

Results for O=C(Nc1ccc(Cl)cc1)N1CCN(Cc2ccc3c(c2)OCO3)CC1 ?
RE007 growth inh: 2.4%; SARS PLpro yeast: 0.4%; StopGo reporter: 6.0%; NS1 function inh: -1.7%

What do the screens show for `COc1cc2nc(CN3CCN(S(=O)(=O)c4cc(C)ccc4C)CC3)[nH]c(=O)c2cc1OC`?
RE007 growth inh: -14.8%; SARS PLpro yeast: -9.0%; StopGo reporter: -11.9%; Lassa entry inh: inconclusive; MARV entry inh: -1.8%[46.1 µM]

Results for COc1cc(Cl)c(C)cc1NC(=O)c1cc2c(s1)-c1c(C)cccc1OC2 ?
Cruzain Triton: -0.5%; StopGo reporter: 0.0%; Cruzain noTriton: -1.0%; MARV entry inh: -8.7%[46.1 µM]

How did Cc1ccc(CNC(=O)c2sc3nc(-c4ccccc4)cn3c2C)cc1 do in these assays?
Cruzain Triton: -4.5%; StopGo reporter: 23.5%; Lassa entry inh: 8.4%[46.1 µM]; Cruzain noTriton: -11.7%

What do the screens show for `Cc1ccc2nsnc2c1-n1c(C)nc2ccccc2c1=O`?
RE007 growth inh: 5.0%; Cruzain Triton: 0.6%; SARS PLpro yeast: 8.1%; StopGo reporter: -0.9%; Lassa entry inh: 10.8%; Cruzain noTriton: 0.9%; MARV entry inh: -11.4%; NS1 function inh: 4.5%

How did Cc1cc(=O)oc2cc(OCC(=O)NCc3ccccn3)ccc12 do in these assays?
RE007 growth inh: -4.0%; Cruzain Triton: -6.9%; SARS PLpro yeast: 16.9%; StopGo reporter: -8.1%; Lassa entry inh: 21.2%; Cruzain noTriton: 2.4%; MARV entry inh: 29.9%; NS1 function inh: 5.2%

How did CCN1CCN(c2c(S(=O)(=O)c3ccc(C)c(C)c3)cnc3cc(OC)c(OC)cc23)CC1 do in these assays?
Cruzain Triton: -5.9%; StopGo reporter: -8.1%; Cruzain noTriton: -1.6%; MARV entry inh: inconclusive

Results for CC(=O)Nc1c(C(=O)NCc2ccccc2)nnn1Cc1ccccc1 ?
RE007 growth inh: 10.1%; Cruzain Triton: 3.1%; SARS PLpro yeast: 4.4%; StopGo reporter: -14.3%; Lassa entry inh: -5.0%; Cruzain noTriton: 12.8%; MARV entry inh: 8.4%; NS1 function inh: 6.0%

Results for CCCCCOC(=O)C1=C(C)NC(=O)NC1c1ccc(OC)cc1 (stereo not given) ?
RE007 growth inh: -0.6%; SARS PLpro yeast: 0.1%; StopGo reporter: -21.3%; Lassa entry inh: inconclusive; MARV entry inh: -27.6%; NS1 function inh: inconclusive

How did Cc1c(C(=O)OC2CCC(C)CC2)[nH]c2c1C(=O)CCC2 (stereo not given) do in these assays?
RE007 growth inh: -1.0%; Cruzain Triton: -6.7%; SARS PLpro yeast: -15.9%; StopGo reporter: 21.5%; Lassa entry inh: inconclusive; Cruzain noTriton: -12.8%; MARV entry inh: inconclusive; NS1 function inh: -59.9%

Results for Cc1c(NC(=O)COC(=O)CSc2ccc(C(N)=O)cc2[N+](=O)[O-])c(=O)n(-c2ccccc2)n1C ?
RE007 growth inh: 1.8%; SARS PLpro yeast: 18.5%; StopGo reporter: -12.1%; Lassa entry inh: 11.1%; MARV entry inh: 20.9%; NS1 function inh: 12.0%

What do the screens show for `COc1ccc2c(c1)c(=O)c(S(=O)(=O)c1ccc(C)c(C)c1)cn2CC(=O)Nc1ccccc1`?
Cruzain Triton: -4.6%; StopGo reporter: 28.2%; Lassa entry inh: 3.2%[46.1 µM]; Cruzain noTriton: -7.6%; MARV entry inh: inconclusive

Results for O=C(COc1ccc(Cl)cc1)Nc1ccc(-c2nc3cc(Cl)ccc3o2)c(O)c1 ?
Cruzain Triton: -0.5%; StopGo reporter: 57.0%[activator]; Lassa entry inh: 16.3%[46.1 µM]; Cruzain noTriton: -5.7%

How did C/C(=N\NC(=O)c1nnn(-c2nonc2N)c1CN(C)C)c1ccco1 do in these assays?
RE007 growth inh: -2.0%; SARS PLpro yeast: 8.4%; StopGo reporter: -11.4%; NS1 function inh: 0.9%

How did CS(=O)(=O)c1ccccc1C(=O)Nc1cccc2ncccc12 do in these assays?
RE007 growth inh: 8.2%; SARS PLpro yeast: 1.4%; StopGo reporter: 11.2%; Lassa entry inh: 0.3%[46.1 µM]; MARV entry inh: -1.5%[46.1 µM]; NS1 function inh: -2.9%

How did CN(CC(=O)N1CCN(c2ncccn2)CC1)S(=O)(=O)c1ccc(Cl)cc1 do in these assays?
RE007 growth inh: -18.3%; SARS PLpro yeast: 0.8%; StopGo reporter: -5.0%; Lassa entry inh: 20.8%; MARV entry inh: -1.5%[46.1 µM]

Results for CCOC(=O)c1c(C)[nH]c(C(=O)OCC(=O)Nc2cc(C)ccc2OC)c1C ?
RE007 growth inh: 13.0%; Cruzain Triton: 3.6%; SARS PLpro yeast: -7.5%; StopGo reporter: -5.5%; Lassa entry inh: -1.2%; Cruzain noTriton: 5.9%; MARV entry inh: 16.6%[46.1 µM]; NS1 function inh: -0.9%

How did Cc1nc(NCc2ccco2)[nH]c(=O)c1CCC(C)C do in these assays?
RE007 growth inh: 17.6%; Cruzain Triton: 0.2%; SARS PLpro yeast: -0.8%; StopGo reporter: 0.0%; Lassa entry inh: -1.1%; Cruzain noTriton: -4.5%; MARV entry inh: -4.6%; NS1 function inh: -32.3%

What do the screens show for `Cc1oc2cc3oc(=O)c(CC(=O)N[C@H](C(=O)N[C@@H](C(=O)O)c4ccccc4)C(C)C)c(C)c3cc2c1C`?
RE007 growth inh: -16.0%; SARS PLpro yeast: 5.8%; StopGo reporter: 16.8%; NS1 function inh: 6.3%

Results for Nc1cc(C(=O)OCC(=O)N2CCOCC2)ccc1Cl ?
RE007 growth inh: 14.7%; SARS PLpro yeast: -0.7%; StopGo reporter: 19.1%; Lassa entry inh: 11.7%[46.1 µM]; MARV entry inh: inconclusive; NS1 function inh: 9.1%

Results for CCOC(=O)CSCC(=O)Nc1c(C(=O)C2CC2)oc2ccccc12 ?
RE007 growth inh: 2.5%; Cruzain Triton: -9.1%; SARS PLpro yeast: -7.5%; Lassa entry inh: 7.5%; Cruzain noTriton: -5.1%; MARV entry inh: 10.7%; NS1 function inh: -4.4%

How did CCOC(=O)c1nc(C)n(-c2cc(OC)c(Cl)cc2Cl)n1 do in these assays?
RE007 growth inh: -3.6%; SARS PLpro yeast: 1.8%; StopGo reporter: 3.2%; Lassa entry inh: -0.1%; MARV entry inh: -14.6%[14.2 µM]

What do the screens show for `COC(=O)c1cccc2c(C(=O)O)cc(-c3ccccc3)nc12`?
RE007 growth inh: 28.2%; StopGo reporter: -14.3%; Lassa entry inh: 13.3%[46.1 µM]; MARV entry inh: inconclusive

What do the screens show for `COc1ccc(-c2csc3nc(-c4ccccc4F)oc(=O)c23)cc1OC`?
RE007 growth inh: 26.5%; Cruzain Triton: -3.3%; SARS PLpro yeast: -8.1%; StopGo reporter: 20µM*; Lassa entry inh: -27.7%; Cruzain noTriton: inconclusive; MARV entry inh: inconclusive; NS1 function inh: 4.2%

How did Cc1cccc(N2CC(C)Cn3c2nc2c3c(=O)n(CC(=O)O)c(=O)n2C)c1 (stereo not given) do in these assays?
Cruzain Triton: -0.8%; StopGo reporter: -2.6%; Lassa entry inh: 3.9%[46.1 µM]; Cruzain noTriton: -6.1%; MARV entry inh: inconclusive

What do the screens show for `O=C(CN1CCN(c2cccc(Cl)c2)CC1)c1ccc(O)cc1O`?
RE007 growth inh: -4.4%; SARS PLpro yeast: 4.0%; StopGo reporter: -21.2%; NS1 function inh: -6.9%

How did O=C1CSCC(=O)N1Cc1ccc(Cl)c(Cl)c1 do in these assays?
RE007 growth inh: -2.2%; SARS PLpro yeast: -1.5%; StopGo reporter: -17.1%; Lassa entry inh: 15.2%[46.1 µM]; MARV entry inh: -11.9%[46.1 µM]; NS1 function inh: -2.3%

Results for Cc1ccc(-n2c(SCCC(C)C)nc3sc4c(c3c2=O)CC(C)(C)OC4)cc1 ?
Cruzain Triton: -1.1%; StopGo reporter: -4.4%; Lassa entry inh: -22.3%[46.1 µM]; Cruzain noTriton: 5.4%; MARV entry inh: 10.9%[46.1 µM]

How did COc1ccc(Cl)cc1NC(=O)CSc1nnc(C2CC2)n1N do in these assays?
RE007 growth inh: -7.3%; SARS PLpro yeast: 15.1%; StopGo reporter: -16.6%; Lassa entry inh: 15.5%; MARV entry inh: 6.4%

Results for CCCCNC(=O)c1cn(C)c2ccc(S(=O)(=O)N3CC(C)CC(C)C3)cc2c1=O (stereo not given) ?
RE007 growth inh: 3.4%; SARS PLpro yeast: 0.0%; StopGo reporter: -1.2%; NS1 function inh: 4.0%

What do the screens show for `COc1cc(NC(=O)CN2C(=O)C(c3ccc(C)cc3)=NC23CCCCCC3)cc(OC)c1`?
Cruzain Triton: -7.6%; StopGo reporter: 19.2%; Lassa entry inh: -2.4%[46.1 µM]; Cruzain noTriton: -21.5%; MARV entry inh: -8.9%[46.1 µM]

What do the screens show for `O=C(O)Cn1cc(C(=S)N2CCOCC2)c2ccccc21`?
RE007 growth inh: 11.5%; Cruzain Triton: 0.7%; SARS PLpro yeast: -0.5%; StopGo reporter: 15.4%; Lassa entry inh: 9.7%; Cruzain noTriton: -9.7%; MARV entry inh: 5.3%; NS1 function inh: 2.0%
